Compound activity (PubChem BioAssay)
Beta apoptosis: blocks beta cell apoptosis. INS-1E cytokine-induced death, ATP luminescence, 48 h; percent of positive-control rescue, neutral wells zero. protection from apoptosis, % (no concentration beside the values). actives 0.8% (n = 300,000);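 active means all replicates at 75% or more, or half of them and the mean; inconclusive means half reach 75% but not the mean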;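 further: 0% = cytokine-treated negative control wells and 100% = positive control rescue; higher means more ATP so stronger rescue from cytokine killing; wells of about 40 µL received 100 nL stock; the first replicate is given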
T cruzi repl: blocks replication of Trypanosoma cruzi; T. cruzi beta-gal in NIH3T3, luminescence, 90 h; inhibition, % (concentration not given with the values); actives 1.4% (n = 300,000);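 active means mean inhibition across valid replicates above about 55%, limit read from the data; inconclusive means mean below that limit but half or more replicates reach it; inactive means mean below it, under half of replicates reach it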;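 further: signal also drops with host cell toxicity which is not excluded here; 0% = plate median of DMSO wells and 100% = zero luminescence signal; higher percent means less beta-gal luminescence so fewer parasites; stock transfer was 50 nL into about 50 µL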
A1 inh: inhibitors of the anti-apoptotic protein A1, read as caspase activation | MEF A1-2A-BIM cells, Caspase-Glo 3/7 luminescence, 3 h; percent of clofoctol response, vehicle zero | caspase activation, % (no concentration beside the values) | actives 0.066% (n = 330,000);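 active means over half of replicate activation scores above 10%, or exactly half above 10 with the replicate mean above 10; inconclusive means replicate mean below 10 yet half the replicates above 10; inactive means over half of replicates below 10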;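 further: wells of about 30 µL received 50 nL stock; many hits fall short of the cut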
LANA-H2A inh: blocks KSHV LANA binding to histone H2A/H2B | inhibition, % (no concentration beside the values) | cell-free LANA-H2A/H2B peptide, fluorescence polarization | actives 0.6% (n = 320,000) | Q9QR71; in the data active means inhibition mostly above about 10%, no sharp cut-off; inactive means mostly below about 6.7%;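 further: stock transfer was 7.5 nL into about 10 µL; 0% = median of vehicle wells and 100% = median of positive control wells; one replicate is shown; the record names a cut of 25% in any replicate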
UCH37 DUB inh: inhibitors of human deubiquitinating enzyme UCH37; Q9Y5K5; purified proteasome/UCH37, Ub-AMC cleavage fluorescence; inhibition, % (test concentration not listed); actives 0.33% (n = 330,000); AID 588478;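 active means mean of two replicates above 20%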;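 further: 0% = compound-free wells with enzyme and 100% = wells lacking proteasome; stock transfer was 100 nL into about 20 µL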
Target sequence (Q9Y5K5 whole entry, looked up): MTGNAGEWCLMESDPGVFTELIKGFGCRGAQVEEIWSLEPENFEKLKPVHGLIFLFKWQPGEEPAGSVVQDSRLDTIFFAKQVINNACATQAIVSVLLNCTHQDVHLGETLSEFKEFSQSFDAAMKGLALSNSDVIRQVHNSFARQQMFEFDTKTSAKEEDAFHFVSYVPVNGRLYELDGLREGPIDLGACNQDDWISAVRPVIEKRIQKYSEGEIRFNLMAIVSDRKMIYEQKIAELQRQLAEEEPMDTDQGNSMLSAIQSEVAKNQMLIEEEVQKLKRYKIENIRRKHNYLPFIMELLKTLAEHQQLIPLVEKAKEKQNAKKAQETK
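system = Proteasome-associated human UCH37 deubiquitinase | amount = 0.15 nM proteasome as dispensed | medium = pH 7.4 Tris-HCl (50 mM) with ovalbumin, ATP-MgCl2, DTT | incubation = 30 min preincubation with enzyme, 25 min cleavage at room temperature | detection = AMC fluorescence 355/460 nm | read-out basis = percent inhibition | controls = no-proteasome and no-compound wells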
RanGTP-Impb inh: disruptors of Ran-importin-beta complex formation – biochemical, FRET, CFP-Ran, YFP-importin-beta, homogeneous, primary screen | actives 1.1% (n = 300,000) | cell-free CFP-Ran/YFP-importin-beta FRET ratio | inhibition, % (no concentration beside the values);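 active means most replicates above 15%; inconclusive means exactly half above 15%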;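 further: 0% = DMSO wells and 100% = Ran loaded with GDP instead of GTP; wells of about 40 µL received 100 nL stock; the first replicate is given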
Calb FLC: C. albicans growth modulation with fluconazole | actives 0.57% (n = 300,000) | growth inhibition, % (concentration not given with the values) | C. albicans CaCi-2 (fluconazole-resistant clinical isolate) + fluconazole, Alamar Blue growth, 48 h;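 active means most replicates above 75%; inconclusive means exactly half above 75%; inactive means most below 75%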;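 further: all wells also contain fluconazole at 8 µg/ml as a sub-toxic cotreatment; 0% = median of DMSO wells and 100% = median of geldanamycin control wells; wells of about 8 µL received 7.5 nL stock; the first replicate is given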
Beta2AR agonist: agonists of human beta-2 adrenergic receptor inducing internalization. P07550. Am2.2-beta2AR cells, FAP receptor internalization, flow cytometry; reference of the scale not given here. response, % (concentration not given with the values). actives 0.43% (n = 340,000). AID 504454;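 active means response above a set limit, near 3 SD of response in nonfluorescent compounds, cut at about 42% in these data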;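 further: stock transfer was 100 nL into about 11 µL; a reference agonist was the positive control; negative values mostly stem from fluorescent compounds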
Target sequence (P07550 whole entry, looked up): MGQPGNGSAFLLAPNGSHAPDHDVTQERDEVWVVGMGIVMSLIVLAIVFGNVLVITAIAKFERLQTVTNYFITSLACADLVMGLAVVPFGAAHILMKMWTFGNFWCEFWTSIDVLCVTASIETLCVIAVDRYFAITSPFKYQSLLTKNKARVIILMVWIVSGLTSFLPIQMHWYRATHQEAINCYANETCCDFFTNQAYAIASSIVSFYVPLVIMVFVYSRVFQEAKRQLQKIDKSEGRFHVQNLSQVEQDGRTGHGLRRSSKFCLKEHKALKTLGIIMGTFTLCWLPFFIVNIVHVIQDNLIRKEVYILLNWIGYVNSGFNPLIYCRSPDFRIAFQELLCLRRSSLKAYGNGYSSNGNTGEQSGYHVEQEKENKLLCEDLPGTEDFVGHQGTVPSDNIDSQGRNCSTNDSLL
* = called active by the depositor; ? = inconclusive; · = no result given.

SMILES	Beta apoptosis	T cruzi repl	A1 inh	LANA-H2A inh	UCH37 DUB inh	RanGTP-Impb inh	Calb FLC	Beta2AR agonist
CC(=O)NC(Cc1ccc(N(CCCl)CCCl)cc1)C(=O)NCC(=O)NCC(=O)O (configuration not stated)	9	-15	0.1	10	1.8	2.3	4	2
Cc1ccc(-c2nc3ccccc3c(=O)n2-c2cccnc2)cc1	4	-4	0.5	2.9	2.8	?	0	-4
Cn1c(=O)n(CC(=O)N2CCC3(CC2)OCCO3)c(=O)c2ccccc21	-1	-10	-0.3	-0.8	-1.1	2.9	7	-4
O=C1NC(=O)N(Cc2ccccc2)C(=O)/C1=C/C=C/c1ccco1	-1	-54	-0.2	0.5	4.1	4.4	6	76*
CC(Cc1ccccc1Sc1ccccc1)N(C)C (configuration not stated)	-4	23	0.4	-0.3	3.5	-4.4	-21	8
Oc1cc2c(cc1CN1CCN(c3ccccc3)CC1)OCO2	1	-6	1.2	1.0	1.8	-2.4	-3	6
CC1CN(c2cc([N+](=O)[O-])ccc2Cl)CC(C)N1 (configuration not stated)	-4	-10	0.2	2.8	2.5	·	·	-2
COc1ccccc1N1CCN(Cc2cc(C)c(C)cc2O)CC1	-6	-5	0.2	2.5	-0.8	3.2	-24	-3
Cc1c(C)c2ccc(OCC(=O)N3CCC(C(=O)O)(c4ccccc4)CC3)cc2oc1=O	-12	-15	-0.4	10	-153	-0.2	-4	-2
CC(C)OC(=O)Cc1ccccc1	-1	·	-0.2	-12	2.6	·	·	-1
N[C@@H](Cc1c[nH]c2ccccc12)c1nnc(SCc2c(F)cccc2Cl)o1	-4	36	0.0	-1.4	5.5	0.7	1	-5
CC(CCc1ccccc1)NCCC#N (configuration not stated)	-7	1	0.0	-4.8	5.6	-2.4	10	-3
CN1CCN(Cc2ccc(N)cc2)CC1	-1	11	0.2	-1.5	-0.9	-4.2	11	-1
COc1cc(CN2CC=C(c3ccc(F)cc3)CC2)cc(OC)c1	-11	-11	-0.7	1.8	-1.4	-0.2	-7	1
COc1ccccc1-n1c(O)c(C=NCCCn2ccnc2)c(=O)[nH]c1=O	-6	1	-0.6	3.6	-0.5	-0.3	5	-1
COc1cccc(N2C(=O)CC(=O)NC2=O)c1	-5	-11	-0.4	2.0	0.7	·	3	2
COc1cccc(-n2c(O)c(C=NCCN3CCOCC3)c(=O)[nH]c2=O)c1	-4	-27	-0.1	0.9	1.5	2.6	12	-1
C[n+]1ccc(-c2ccncc2)cc1	2	-13	0.6	0.2	0.8	-4.5	5	-16
O=C1CSC2N1CCNC21CCCCC1 (configuration not stated)	4	-5	0.4	-11	-2.2	3.6	16	4
O=C(COc1ccc2ccccc2c1)N1CCN(CC2CC3C=CC2C3)CC1 (configuration not stated)	-6	9	-0.3	0.6	3.4	-14	-9	9
Cn1cc(C(=O)N2CCC3(CC2)OCCO3)c2c3ccccc3n(C)c2c1=O	-10	-9	0.8	-2.0	-108	-2.6	-9	1
CCCCOc1nc2ccccc2c(=O)n1-c1ccccc1	-6	20	-0.6	-0.2	2.9	-0.9	4	-8
O=C(C1CCN(S(=O)(=O)N2CCOCC2)CC1)N1CCC2(CC1)OCCO2	0	0	-0.4	-1.3	5.1	?	0	4
CCN1C[C@]2(CO)CC[C@H](OC)[C@@]34C2[C@H](OC)[C@@](O)(C13)[C@@]1(O)C[C@H](OC)[C@H]2C[C@@H]4[C@@H]1[C@H]2OC	-4	6	0.4	-3.5	3.0	-2.9	1	-2
CCCCn1c(O)c(C(CC)=NCCc2ccccc2)c(=O)[nH]c1=O	-3	16	0.9	3.5	0.1	-1.3	30	-7

Results in Beta apoptosis, for 3 of the compounds above:
SMILES,Beta apoptosis
Cn1cc(C(=O)N2CCC3(CC2)OCCO3)c2c3ccccc3n(C)c2c1=O,-10
CCCCOc1nc2ccccc2c(=O)n1-c1ccccc1,-6
O=C(C1CCN(S(=O)(=O)N2CCOCC2)CC1)N1CCC2(CC1)OCCO2,0

One compound at a time, as listed above. Order of screens: Beta apoptosis, T cruzi repl, A1 inh, LANA-H2A inh, UCH37 DUB inh, RanGTP-Impb inh, Calb FLC, Beta2AR agonist
Shown for `O=C(C1CCN(S(=O)(=O)N2CCOCC2)CC1)N1CCC2(CC1)OCCO2` → 0, 0, -0.4, -1.3, 5.1, ?, 0, 4
Shown for `COc1cccc(N2C(=O)CC(=O)NC2=O)c1` → -5, -11, -0.4, 2.0, 0.7, ·, 3, 2
Shown for `CC(Cc1ccccc1Sc1ccccc1)N(C)C` (configuration not stated) → -4, 23, 0.4, -0.3, 3.5, -4.4, -21, 8
Shown for `C[n+]1ccc(-c2ccncc2)cc1` → 2, -13, 0.6, 0.2, 0.8, -4.5, 5, -16
Shown for `O=C1CSC2N1CCNC21CCCCC1` (configuration not stated) → 4, -5, 0.4, -11, -2.2, 3.6, 16, 4

Another view of part of the listing above:
SMILES,Beta apoptosis,T cruzi repl,A1 inh,LANA-H2A inh,UCH37 DUB inh,RanGTP-Impb inh,Calb FLC,Beta2AR agonist
O=C1CSC2N1CCNC21CCCCC1 (configuration not stated),4,-5,0.4,-11,-2.2,3.6,16,4
O=C(COc1ccc2ccccc2c1)N1CCN(CC2CC3C=CC2C3)CC1 (configuration not stated),-6,9,-0.3,0.6,3.4,-14,-9,9
Cn1cc(C(=O)N2CCC3(CC2)OCCO3)c2c3ccccc3n(C)c2c1=O,-10,-9,0.8,-2.0,-108,-2.6,-9,1
CCCCOc1nc2ccccc2c(=O)n1-c1ccccc1,-6,20,-0.6,-0.2,2.9,-0.9,4,-8
O=C(C1CCN(S(=O)(=O)N2CCOCC2)CC1)N1CCC2(CC1)OCCO2,0,0,-0.4,-1.3,5.1,?,0,4
CCN1C[C@]2(CO)CC[C@H](OC)[C@@]34C2[C@H](OC)[C@@](O)(C13)[C@@]1(O)C[C@H](OC)[C@H]2C[C@@H]4[C@@H]1[C@H]2OC,-4,6,0.4,-3.5,3.0,-2.9,1,-2

Next structures follow:
SMILES	Beta apoptosis	T cruzi repl	A1 inh	LANA-H2A inh	UCH37 DUB inh	RanGTP-Impb inh	Calb FLC	Beta2AR agonist
CC(=O)OC1CC[C@@]2(C)C(=CC(=O)C3C4CCC(OC(C)=O)[C@@]4(C)CCC32)C1 (some centres not stated)	·	-7	1.6	6.5	5.4	0.0	-4	-5
O=C1/C(=C/c2ccncc2)N2CCC1CC2	-1	-17	1.2	-8.7	4.9	-0.3	9	7
O=[P+](Cc1ccccc1)Cc1ccccc1	-3	1	0.4	3.9	0.3	2.4	-1	-2
Cc1ccc(-n2c(O)c(C=NC3CCCC3)c(=O)[nH]c2=O)c(C)c1	0	-2	-0.6	5.6	2.0	2.5	14	9
Fc1ccc(C2N3CCCN23)cc1 (configuration not stated)	-1	-23	0.2	1.5	2.2	-3.2	8	1
Nc1nonc1OCCCCOc1nonc1N	-15	-11	-0.3	·	1.8	0.8	-3	-4
CC(C)N(CC#CCC1(O)c2ccccc2-c2ccccc21)C(C)C	6	10	1.2	-3.0	2.6	0.1	-1	2
O=C(Cc1ccccc1)N1CCN(CCCc2ccccc2)CC1	-9	14	1.6	3.7	3.5	-3.2	1	-2
O=C(Nc1ccc(F)cc1F)c1cccnc1Oc1cccc(C(F)(F)F)c1	4	19	-0.4	-1.5	0.3	0.8	12	1
Cc1ccsc1CNCCc1ccc(F)cc1	-1	47	-0.8	2.5	3.2	?	16	4
O=C(NCNC(=O)NC1C(=O)NC(=O)N1CO)NC1C(=O)NC(=O)N1CO (configuration not stated)	4	·	3.0	6.4	6.5	·	·	-7
Cc1cccc(N=Cc2c(O)n(C)c(=O)n(C)c2=O)c1	-3	-21	-1.1	-6.7	7.2	-4.0	-5	-2
COC(=O)C1=C(c2ccc(S(C)(=O)=O)cc2)C[C@@H]2CC[C@H]1N2C(=O)NCCO	-5	-21	0.4	-1.2	-0.6	3.6	7	0
O=Cc1cn(Cc2cccc(F)c2)c2ccccc12	·	-18	0.1	-0.3	1.5	-1.8	6	3
Cc1ccc(-c2nc(N(C)C3CCN(C)CC3)c3ccccc3n2)cc1	17	?	0.1	-0.7	-2.1	?	-9	5
NCc1cc(=O)[nH]o1	-3	·	1.5	-1.2	6.8	·	·	-8
COC(=O)C1=C(C)OC(N)=C(C#N)C12C(=O)Nc1ccccc12 (configuration not stated)	-4	-8	1.1	-2.3	1.4	-0.7	-4	11
O=[N+]([O-])c1c2ccccc2cc2ccccc12	2	·	0.1	-2.7	2.4	·	·	-4

The list is partial (hit frequency here may not be typical).
